Bioassay records deposited in PubChem BioAssay by several laboratories.
Mtb H37Rv = M. tuberculosis H37Rv growth inhibitors, H37Rv strain (AID 1626); M. tuberculosis H37Rv growth inhibition; higher % means a stronger effect; 220,000 tested, 0.95% active; one-dose inhibition, % at 10 µM; IC50 in µM for titrated hits;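 active = confirmed in a dose series; inconclusive = inhibition above 80% but not taken into the dose series; inactive = below 80% or under 30% at every dose of the series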;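 note: bacteria incubated seven days before Alamar blue readout; 0% = bacteria only wells and 100% = bacteria with antibiotic wells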
Mtb betalactam = beta-lactam sensitization of Mtb H37Rv, H37Rv | M. tuberculosis H37Rv growth with meropenem, percent inhibition; hits of this screen are not shown here | inhibition, % at 25 µM | 330,000 tested, 0.27% active;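 active = about 74% or more and at least 40 points above the plate without the antibiotic, then above 30% in a dose series; inconclusive = first-round hits that could not be retested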;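 note: growth measured after seven days incubation then overnight dye step; 0% = bacteria only wells and 100% = bacteria with antibiotic; twin plates without the antibiotic show which effects depend on it; some results filed as inactive read as strong as hits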
RecA splice inh = Mtb RecA intein splicing inhibitors, primary screen, biochemical, fluorescence, HTS; Protein RecA (Mycobacterium tuberculosis (strain ATCC 25618 / H37Rv)), P9WHJ3; cell-free RecA intein splicing; inhibition, %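 (about 9 µM by stock and volumes)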; 290,000 tested, 0.75% active; in the data active = inhibition above about 30%; inconclusive = no clear call, values can overlap the other calls;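 note: 0% = vehicle wells and 100% = reference inhibitor control wells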
Target sequence (P9WHJ3 whole entry, looked up, canonical isoform): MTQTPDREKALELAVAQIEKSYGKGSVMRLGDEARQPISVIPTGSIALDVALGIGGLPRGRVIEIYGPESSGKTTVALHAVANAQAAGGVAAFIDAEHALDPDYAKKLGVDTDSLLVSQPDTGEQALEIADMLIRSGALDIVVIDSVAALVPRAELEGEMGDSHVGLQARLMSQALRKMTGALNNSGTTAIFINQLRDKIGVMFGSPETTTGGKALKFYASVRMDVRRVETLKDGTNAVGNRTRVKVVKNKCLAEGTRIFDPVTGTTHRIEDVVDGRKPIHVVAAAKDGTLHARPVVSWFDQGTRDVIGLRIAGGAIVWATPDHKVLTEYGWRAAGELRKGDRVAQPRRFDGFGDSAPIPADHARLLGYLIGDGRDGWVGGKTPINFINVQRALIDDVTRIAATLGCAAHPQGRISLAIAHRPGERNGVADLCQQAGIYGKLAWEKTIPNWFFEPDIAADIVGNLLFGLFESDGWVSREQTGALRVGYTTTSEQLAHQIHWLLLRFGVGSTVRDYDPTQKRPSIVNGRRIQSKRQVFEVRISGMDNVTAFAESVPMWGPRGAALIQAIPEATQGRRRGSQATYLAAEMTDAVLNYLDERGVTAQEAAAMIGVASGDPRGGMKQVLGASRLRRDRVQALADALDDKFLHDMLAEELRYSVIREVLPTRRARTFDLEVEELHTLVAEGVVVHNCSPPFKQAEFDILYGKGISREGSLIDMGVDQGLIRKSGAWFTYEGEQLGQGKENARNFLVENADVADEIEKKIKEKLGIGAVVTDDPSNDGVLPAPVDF
YopH PTP inh = YopH tyrosine phosphatase inhibitors, primary screen, biochemical, fluorescence Ex485/Em525; inhibition, %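 (about 10 µM by stock and volumes)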; 140,000 tested, 0.16% active; AID 898, 2007;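 active = inhibition of 50% or more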;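 note: controls were vehicle for no effect and minimum signal wells for full effect; inactives centre near -20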
Arbovirus anti = antivirals against arbovirus infection, primary screen, cell-based, full library, 10K replicate subset. inhibition, % at 10 µM. arbovirus infection cell-based antiviral screen. 200,000 tested, 0.37% active;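 active = inhibition from about 30%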;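 note: bluetongue infection of BSR cells; cell survival read as ATP light after 72 h; 0% = infected wells without compound and 100% = uninfected wells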
Arbovirus anti repeat = further read-out of Arbovirus anti, marked with its call; inhibition, %; measured here: 10K subset replicate screen; many hits read low in the repeat;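 first of two repeat runs on a subset; 0% = infected and 100% = uninfected wells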
Active calls of the source: *; ? = inconclusive; / = no result given. An excerpt; rates above refer to the full screens.

SMILES	Mtb H37Rv	Mtb betalactam	RecA splice inh	YopH PTP inh	Arbovirus anti	others
COc1ccc(CNC(=O)COc2ccc([N+](=O)[O-])cc2)cc1	12%	8	-0.8	-7	3
CCCCN(C)C(=O)C1CCC(CNS(=O)(=O)c2ccc3c(c2)CC(C)N3C(C)=O)CC1 (centres undefined)	/	4	-2.2	/	/
COc1ccc(O)c(C2=Nc3ccccc3N=C(c3cccs3)C2)c1	0%	1	-3.0	-20	7
C/C(Cn1cnc([N+](=O)[O-])n1)=N\NC(=O)c1ccc(O)cc1O	-7%	-1	-0.9	/	2
CN1C2CCC1CC(OC(=O)c1ccc(Cl)cc1)(C(=O)O)C2 (centres undefined)	16%	-6	-3.5	-16	11
CC(C)CCCC(C)CCOC(=O)CN1CCCC1 (centres undefined)	-11%	-2	2.2	/	/
Cc1cccc(NC(=O)C(=O)NCCc2c[nH]c3ccccc23)c1C	8%	-1	-3.7	/	-3
Cc1nnc(SC(C)C(=O)Nc2ccc(S(=O)(=O)N3CCCCCC3)cc2)s1 (centres undefined)	-2%	-7	0.3	-46	-4
CC(=O)c1cccc(NC(=O)N2C3CCCC2CC(NC(=O)C2CC2)C3)c1 (centres undefined)	/	-1	-21	/	/
COc1ccc(OCC(O)CN2CC(C)OC(C)C2)cc1 (centres undefined)	/	4	-3.6	/	/
CN=c1sc(C(=O)Nc2cccc(Cl)c2)cc(=O)n1C	0%	1	-13	-31	1
COc1cc2ccccc2cc1C(=O)Nc1ccc(S(=O)(=O)Nc2cc(C)on2)cc1	8%	91	-0.7	-48	5
CC1(C(=O)OCC(=O)Nc2nc(-c3ccc(F)c(F)c3)cs2)CC1(Cl)Cl (centres undefined)	/	?	4.1	/	/
O=C(Nc1cccc(C(=O)N2CCCCCC2)c1)c1ccco1	-2%	34	8.7	-17	5
Cc1nn(Cc2ccccc2Cl)c(C)c1C(=O)N1CCN(c2ccccc2)CC1	-1%	-16	3.7	-56	1
CC(C)NC(=O)NC(=O)COC(=O)c1ccccc1F	-3%	7	0.3	-7	0
CC1(C)CC(=O)C2=C(C1)N(Cc1ccccc1)C(=O)C2(NC(=O)C(C)(C)C)C(F)(F)F (centres undefined)	-1%	4	-0.1	-8	7
O=C(Nc1ccc(Cl)c(Cl)c1)N1N=CCC1c1ccccc1 (centres undefined)	14%	/	7.7	/	-25
Cn1cc(S(=O)(=O)NC2CCCCC2)c(=O)n(C)c1=O	/	-3	-0.5	/	/
Fc1ccccc1CSc1nc2ccccc2[nH]1	/	-2	5.8	-16	0
CC(=O)Nc1ccc(C(=O)Nc2ccc3c(c2)OCCO3)cc1	/	-4	0.0	/	/
COC(=O)CCC(=O)c1ccc(OC)c(Cl)c1	/	-3	-1.1	/	/
c1ccc2ncc(-n3cnnn3)cc2c1	-3%	-4	/	28	-4
O=c1c2ccccc2nc(-c2ccco2)n1CCc1ccc(O)cc1	/	?	-1.5	/	/
Cc1cc(C)nc(SCC(=O)NCc2ccco2)n1	5%	-3	0.5	-29	5	Arbovirus anti repeat=-2

Next section; the last 3 above are carried over.
SMILES	Mtb H37Rv	Mtb betalactam	RecA splice inh	YopH PTP inh	Arbovirus anti	others
c1ccc2ncc(-n3cnnn3)cc2c1	-3%	-4	/	28	-4
O=c1c2ccccc2nc(-c2ccco2)n1CCc1ccc(O)cc1	/	?	-1.5	/	/
Cc1cc(C)nc(SCC(=O)NCc2ccco2)n1	5%	-3	0.5	-29	5	Arbovirus anti repeat=-2
CCOC(=O)N/N=C/C=C/c1ccccc1[N+](=O)[O-]	1%	-6	5.0	/	0
CCN(CC)c1ccc(C(=O)OCC(=O)Nc2ccccc2-c2ccccc2)cc1	16%	65	5.3	-27	3
CC(C)(C)CC(=O)NCc1cccs1	3%	1	4.0	/	2
Cc1ccc(N(CC(=O)Nc2ccccc2-c2ccccc2)S(=O)(=O)c2ccccc2)c(C)c1	20%	9	10	-9	-12
Cc1ccc2c(c1)NC(c1cccs1)C1=C(CC(C)(C)CC1=O)N2 (centres undefined)	1%	2	-3.3	/	-2
CCS(=O)(=O)N1CCN(c2ccc(C(=O)NC34CC5CC(CC(C5)C3)C4)cc2[N+](=O)[O-])CC1	11%	7	-1.1	-6	9
COc1cccc2c1CCc1c-2nc2ccccc2c1C(=O)O	/	0	-2.5	/	/
Cc1c(C(=O)O)cccc1-n1c(C)cc(/C=C2\C(=O)NC(=O)N(c3ccc4c(c3)OCO4)C2=O)c1C	4%	-5	-2.0	/	-1
CS(=O)(=O)Nc1ccccc1C(=O)N1CCN(c2ccccc2)CC1	/	-7	-3.2	-9	9
O=C(CSc1nnc(Nc2ccccc2)s1)NCCN1C(=O)CSC1=O	0%	-12	-3.1	-11	-6
Cn1cccc1CC(=O)N/N=C/c1ccc(Cl)cc1	-7%	-3	3.2	/	/
C#CCOCCOCCOCCNc1nc(N2CCN(C(=O)[C@H]([C@@H](C)CC)n3cc([C@@H](N)CC(C)C)nn3)CC2)nc(N2CCN(C(=O)[C@H](Cc3ccc(O)cc3)n3cc([C@@H](N)CC(C)C)nn3)CC2)n1	4%	-13	6.8	/	-7
CCOC(=O)C[C@H]1c2ccc(C(F)(F)F)cc2S(=O)(=O)N1C1CCCC1	1%	-4	-1.1	/	/
Cc1ccnc(SCC(=O)N2CCN(C(c3ccccc3)c3ccccc3)CC2)n1	0%	6	4.5	-7	-23
O=C(NCCc1ccccc1)C1CCCN1S(=O)(=O)c1cccc2nsnc12 (centres undefined)	/	-9	-0.5	/	/
COc1cc(C(=O)O)cc(NC(=O)c2ccco2)c1OC	-8%	2	1.4	/	/
O=C1N=C(N2CCN(c3ccccc3)CC2)S/C1=C\c1ccco1	-10%	-7	0.6	/	-11
Cc1nnc(NC(=O)CSc2nnc(-c3ccoc3C)n2CC(C)C)s1	1%	-1	2.0	-57	0
Cc1cc(C)n(-c2ccc(N3CCOCC3)nn2)n1	3%	2	-0.7	-15	-2	Arbovirus anti repeat=-1
CCn1c(=O)cc(OCC(=O)NC2CCCCC2)c2ccccc21	-13%	3	2.2	-30	-21
COc1ccc(N=Cc2ccc[nH]2)cc1	>100µM*	98	-3.2	-7	-13
O=C(Oc1ccc(Cl)cc1N1C(=O)CCC1=O)c1ccco1	5%	-8	26	-28	5
CCCCSc1nnc(C)c(=O)[nH]1	2%	0	-1.0	-42	7	Arbovirus anti repeat=2
COc1ccccc1C(NC(=O)C1CCCCC1)c1c(O)ccc2ccccc12 (centres undefined)	14%	1	-1.2	-17	9
COc1ccc(C(=O)Cn2c3ccccc3n3nc(CCC(=O)O)c(=O)nc23)cc1OC	4%	-2	0.9	-2	3

Already shown: 6 of the compounds above.
SMILES	Mtb H37Rv	Mtb betalactam	RecA splice inh	YopH PTP inh	Arbovirus anti	others
CCn1c(=O)cc(OCC(=O)NC2CCCCC2)c2ccccc21	-13%	3	2.2	-30	-21
COc1ccc(N=Cc2ccc[nH]2)cc1	>100µM*	98	-3.2	-7	-13
O=C(Oc1ccc(Cl)cc1N1C(=O)CCC1=O)c1ccco1	5%	-8	26	-28	5
CCCCSc1nnc(C)c(=O)[nH]1	2%	0	-1.0	-42	7	Arbovirus anti repeat=2
COc1ccccc1C(NC(=O)C1CCCCC1)c1c(O)ccc2ccccc12 (centres undefined)	14%	1	-1.2	-17	9
COc1ccc(C(=O)Cn2c3ccccc3n3nc(CCC(=O)O)c(=O)nc23)cc1OC	4%	-2	0.9	-2	3

Seven compounds drawn at random from those above, as already listed:
SMILES	Mtb H37Rv	Mtb betalactam	RecA splice inh	YopH PTP inh	Arbovirus anti	others
COc1ccccc1C(NC(=O)C1CCCCC1)c1c(O)ccc2ccccc12 (centres undefined)	14%	1	-1.2	-17	9
O=C(NCCc1ccccc1)C1CCCN1S(=O)(=O)c1cccc2nsnc12 (centres undefined)	/	-9	-0.5	/	/
O=C1N=C(N2CCN(c3ccccc3)CC2)S/C1=C\c1ccco1	-10%	-7	0.6	/	-11
COc1cccc2c1CCc1c-2nc2ccccc2c1C(=O)O	/	0	-2.5	/	/
CCN(CC)c1ccc(C(=O)OCC(=O)Nc2ccccc2-c2ccccc2)cc1	16%	65	5.3	-27	3
CS(=O)(=O)Nc1ccccc1C(=O)N1CCN(c2ccccc2)CC1	/	-7	-3.2	-9	9
COc1ccc(N=Cc2ccc[nH]2)cc1	>100µM*	98	-3.2	-7	-13

An excerpt from above in order of length of the SMILES, falling:
SMILES	Mtb H37Rv	Mtb betalactam	RecA splice inh	YopH PTP inh	Arbovirus anti	others
Cc1nnc(NC(=O)CSc2nnc(-c3ccoc3C)n2CC(C)C)s1	1%	-1	2.0	-57	0
COc1cc(C(=O)O)cc(NC(=O)c2ccco2)c1OC	-8%	2	1.4	/	/
Cn1cccc1CC(=O)N/N=C/c1ccc(Cl)cc1	-7%	-3	3.2	/	/

Next section:
SMILES	Mtb H37Rv	Mtb betalactam	RecA splice inh	YopH PTP inh	Arbovirus anti	others
COc1ccc(S(=O)(=O)N2CCN(C(=O)c3cccc(Cl)c3)CC2)cc1	0%	-7	0.6	-20	10
O=C(CSc1nc2ccccc2c(=O)n1NC(=O)Cc1ccccc1)NCc1ccccc1Cl	-22%	-3	2.7	-16	-8
CN(Cc1ccccc1)C1CCNCC1	/	6	2.9	/	/
Nc1cc(=O)[nH]c(SCCSc2cc(Cl)ccc2Cl)n1	/	8	-1.3	/	/
Cc1cc(C)cc(C(=O)NCC(=O)NCCc2c[nH]c3ccccc23)c1	/	-2	0.1	/	/
Nc1nonc1-n1nnc(C(=O)N/N=C/c2cccc(F)c2)c1CN1CCCCCC1	/	8	-0.2	/	/
CCOc1c(OC)cccc1C1CC(=O)Nc2cc(OC)c(OC)cc21 (centres undefined)	1%	3	-1.0	-3	1
CN(C)c1ccc(P(=O)(OCc2ccccc2)C(O)c2ccc(Br)cc2)cc1 (centres undefined)	16%	3	0.3	/	/
CCc1ccc2c(c1)cc(CN(C(=S)Nc1ccccc1Cl)C1CC1)c1nnnn12	1%	-5	-0.3	-30	1
C/C(=N\NC(=O)CCn1nc(C)cc1C)C(C)(C)C	-4%	0	-2.1	-9	-5
Cc1ccccc1NC(=O)/C(C#N)=C\c1cccnc1	-13%	-3	-0.6	-17	-2
COC(=O)C(O)(CC(=O)Nc1cc(Cl)ccc1Cl)C(F)(F)F (centres undefined)	3%	-5	0.1	26	4
N#C/C(=C\c1c[nH]c2ccccc12)C(=O)NC1CCCC1	/	8	1.2	/	/
COc1ccc(NC(=O)C(=O)NCCC2CCCCN2S(=O)(=O)c2cccs2)cc1 (centres undefined)	/	3	-1.3	/	/
COc1ccc(-n2c(SCC(=O)NC3CCCCC3)nc3ccsc3c2=O)cc1	-2%	4	5.1	-5	7
CCOc1ccc(NC(=O)/C(C=Nc2ccccc2)=C(\C)O)cc1	/	8	-0.8	/	/
Cc1ccc(S(=O)(=O)N(CCCN2CCCC2=O)Cc2cc3c(C)ccc(C)c3[nH]c2=O)cc1	-6%	4	2.3	-13	-1
Cn1c2ccccc2c(=O)c2ccc(F)cc21	/	-1	-372	/	/
CCOc1ccc(C2Nc3cccc4cccc(c34)N2)cc1OC	11%	71	8.3	-1	8
CCCC(=O)Nc1nnc(CCc2ccccc2)s1	/	-8	-1.1	/	/
CCC1Oc2ccc(C)cc2N(CC(=O)NCc2cccs2)C1=O (centres undefined)	1%	5	1.2	/	3
CCOC(=O)c1sc(N)c(C(N)=O)c1C	5%	-7	3.9	/	21
Cc1nn(Cc2ccccc2)c(C)c1NC(=O)c1noc2c1CCc1ccccc1-2	10%	-4	-0.1	-53	5
